BJeLR lethal: BJeLR cell viability loss; BJeLR (HRASV12) viability, CellTiter-Glo ATP luminescence, 48 h; reference of the scale not given here; inhibition, % (test concentration not listed); 300,000 compounds, 0.17% hits;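 active = replicate mean above 50%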;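 also: 50 nL library stock added to about 25 µL; numbers are from one replicate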
PrP UTR inh: suppresses PrP 5' UTR mRNA reporter expression; cell-based PrP 5' UTR mRNA reporter, plate reader; inhibition, % (concentration not given with the values); 340,000 compounds, 0.35% hits; AID 488862;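 active = every replicate at 50% or more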;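 also: 0 = median of the neutral control wells; tested in H4 reporter cells; numbers are from one replicate; inactives centre near -14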
Mtb hypoxia rep: reduces hypoxia-regulated biosensor signal in M. tuberculosis; M. tuberculosis hypoxia-regulated fluorescent reporter, fluorescence; fluorescence inhibition, % (concentration not given with the values); 300,000 compounds, 0.1% hits; AID 1159583;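 active = 35 to 45% if threefold the growth effect, above 45% if 1.5-fold the growth effect; inactive = the rest, general growth blockers included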;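 also: wells of about 50 µL received 100 nL stock; 0% = vehicle wells and 100% = reference inhibitor wells; whole bacteria with a GFP reporter of the hypoxia response; strong numbers were not always called active; many hits fall short of the cut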
RN4220 kill: S. aureus RN4220 growth inhibition; OD600, 16 h; inhibition, % (concentration not given with the values); 330,000 compounds, 0.33% hits; AID 1259311;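 active = z-score of -3 or lower and OD600 up to 0.18 on both plates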;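 also: plate controls were untreated cells for no effect and reference antibiotic for full effect; stock transfer was 100 nL into about 80 µL; one replicate is shown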
Autofluor counter: flagged as autofluorescent in microsphere protease counterscreen; compound autofluorescence counterscreen, microsphere flow cytometry; hits give high values; fluorescence intensity (no concentration beside the values); 360,000 compounds, 3.1% hits;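 active = at least 3 SD above the mean of all compounds, about 16000 in these data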;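 also: 100 nL of 1 mM stock went into each well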
ugtP null kill: compounds lethal to S. aureus RN4220 ugtP deletion mutant; OD600 growth, 16 h; some inactives read as strong as hits; growth inhibition, % (no concentration beside the values); 330,000 compounds, 0.54% hits;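 active = z-score under -3 and OD600 up to 0.15 on both plates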;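 also: plate controls were untreated wells for no effect and antibiotic for full effect; wells of about 80 µL received 100 nL stock; the first replicate is given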
Mtb hypoxia rep growth: further read-out of Mtb hypoxia rep, marked with its call; growth inhibition, %; measured here: M. tuberculosis growth (absorbance);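 0% = vehicle and 100% = reference antibiotic; read after six days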
* = called active by the depositor; . = no result given.

Each structure is followed by: BJeLR lethal | PrP UTR inh | Mtb hypoxia rep | Mtb hypoxia rep growth | RN4220 kill | Autofluor counter | ugtP null kill
- Cc1nnc2c(N3CCN(C(=O)c4ccco4)CC3)nc3ccccc3n12
  1 | 2 | 11 | 2 | 4.4 | 6143 | -9
- Cc1nn(C(C)C(=O)O)c(=O)c2ccccc12 (stereo unspecified)
  7 | -25 | 3 | 3 | 3.2 | 4142 | 2
- O=C(CN1CCCC1)OCCCC1CCCCC1
  -7 | -27 | 15 | 7 | 4.8 | 3885 | 11
- Cc1ccc2c(c1)COc1c3ccc(C(=O)N4CCCCC4)cc3nn1-2
  23 | -30 | 4 | 7 | 12 | 3582 | 17
- COc1ccc(C(=O)NCCc2nnc3ccc(SCC(=O)N4CCCC4)nn23)cc1
  0 | -6 | 3 | 4 | 0.1 | 6057 | 3
- CC(C(=O)Nc1ccc2c(c1)OCCO2)N1Cc2ccccc2C1=O (stereo unspecified)
  -3 | -22 | 5 | 3 | 1.5 | 4466 | 10
- COc1cc(NC(=O)c2noc3c2CCC3)c(OC)cc1Cl
  2 | -24 | 7 | -1 | 8.1 | 19679* | 4
- COc1ccc(F)cc1S(=O)(=O)N1CCCC(C)C1 (stereo unspecified)
  -7 | -3 | 7 | -5 | 3.8 | 6739 | 14
- O=C(NCCCn1ccnc1)c1ccc(NS(=O)(=O)c2cccc([N+](=O)[O-])c2)cc1
  -7 | -15 | 1 | 4 | 6.9 | 3910 | 4
- O=c1[nH]c(CSc2nnc(COc3ccccc3)n2-c2ccccc2)nc2ccccc12
  7 | -21 | -8 | 13 | 2.8 | 5896 | -3
- COc1ccc(S(=O)(=O)Nc2ccccc2C(=O)NCc2cccnc2)cc1OC
  -6 | 1 | 10 | 1 | -0.8 | 4034 | -2
- CC(=NNC(=O)c1ccc(CN2CCc3ccccc3C2)cc1)c1ccccc1O
  . | . | 16 | 1 | 7.6 | . | 7
- O=C(NCCc1c[nH]c2ccccc12)C(=O)NCC1OCCCN1S(=O)(=O)c1ccc(F)cc1 (stereo unspecified)
  -5 | -17 | -10 | -1 | -0.6 | 2481 | -3
- COc1cccc(C(=O)/C=C2\Sc3ccccc3N2C)c1
  2 | -77 | 17 | 16 | 18 | 3576 | -7
- CC(C)(C)C(=O)Nc1ccc(C(=O)N/N=C/c2ccccc2OC(=O)c2ccc(Cl)cc2Cl)cc1
  14 | -12 | . | . | . | 3258 | .
- CC1=Nc2ccccc2/C1=C/c1c(O)n(C)c(=O)[nH]c1=O
  -3 | -6 | 11 | -1 | 3.9 | 3697 | -1
- CCOc1ccc(C(Nc2cccnc2)c2cc(Cl)c3cccnc3c2O)cc1 (stereo unspecified)
  . | -5 | 6 | 11 | 15 | 4091 | 2
- Cc1cccc(-n2c(Cc3cc(=O)[nH]c(=O)[nH]3)nnc2SC(C)C)c1
  2 | 7 | 9 | 7 | 2.6 | 4466 | -6
- COc1ccc(-c2nc(N)ncc2-c2ccc(OC)c(OC)c2)c(O)c1
  2 | -17 | 2 | -5 | 4.2 | 4077 | 2
- CCCc1cc(=O)[nH]c(SCC(=O)Nc2cc(S(=O)(=O)N3CCCCC3)ccc2Cl)n1
  . | -15 | 4 | -1 | 19 | 3655 | 12
- O=C(CN1CCC(NC(=O)c2ccco2)CC1)Nc1cccc2ccccc12
  6 | 13 | . | . | -3.5 | 4451 | 10
- Brc1nnc2n1-c1ccccc1Sc1ccccc1-2
  3 | -10 | 9 | -4 | -2.1 | 4551 | -3
- O=C(CSCc1ccco1)Nc1cc(C(F)(F)F)ccc1N1CCOCC1
  12 | -17 | 17 | 4 | 8.5 | 6064 | 3
- Cc1ccc(Sc2ncccc2C(=O)NCc2cc([N+](=O)[O-])ccc2O)c(C)c1
  5 | -18 | 12 | 1 | 18 | 6637 | 1
- CCOc1ccc(CN2CCNC(=O)C2CC(=O)NCc2ccccn2)cc1 (stereo unspecified)
  0 | -29 | 12 | 18 | 2.0 | 2413 | 5
- Cc1ccc(C(=O)CSc2nc3ccc(C(=O)NCCN4CCCCC4)cc3c(=O)[nH]2)cc1
  -3 | -6 | 2 | 0 | 2.0 | 4968 | 0
- COc1cc(C)c(-c2cc(C(=O)O)c(C)o2)cc1C(C)C
  3 | -5 | 8 | 2 | -0.4 | 2409 | 3
- CCCCCCNC(=O)c1cc(-c2ccco2)nc2ccccc12
  -9 | -8 | -5 | 14 | 3.4 | 3516 | -10
- CC(C)CN1CCC(=O)N([C@H](CSc2ccc(Br)cc2)c2ccccc2)CC1
  -2 | -25 | . | . | . | 3286 | .
- Cc1cccc(COc2ccc(/C=N/NC(=O)c3nnn(-c4nonc4N)c3C)cc2)c1
  12 | -7 | . | . | . | 5411 | .
- Cc1cc2oc(=O)cc(COC(=O)Cn3cnnn3)c2cc1C(C)C
  2 | 6 | -5 | 1 | 1.1 | 9611 | -1
- Cc1ccnc(SCC(=O)c2cccs2)n1
  5 | -8 | 4 | 8 | 5.2 | 4228 | 5
- CCS(=O)(=O)N1CCN(C2CCC(c3ccccc3)CC2)CC1 (stereo unspecified)
  -11 | -34 | 7 | 7 | 5.1 | 10390 | 1
- Cc1ccc(CNC(=O)C2CCCN(S(=O)(=O)c3ccc(-n4cnnn4)cc3)C2)cc1 (stereo unspecified)
  -13 | -10 | 2 | -6 | 2.7 | 6542 | 9
- O=C(CN1C(=O)CSc2ccc(S(=O)(=O)N3CCCCC3)cc21)NCc1ccccc1
  10 | -24 | 8 | 1 | 6.9 | 5337 | 10
- O=C(Nc1ccccc1C(=O)O)c1cccc(NS(=O)(=O)c2ccc(Br)cc2)c1
  -11 | -32 | 4 | -11 | 5.6 | 3689 | 29
- O=C(Nc1nnc(-c2ccncc2)o1)c1ccccc1F
  6 | -29 | -12 | 11 | 3.0 | 3799 | -1
- CN(c1ccccc1)S(=O)(=O)c1ccc(C(=O)NCCc2ccc(F)cc2)cc1
  -6 | -7 | 15 | 3 | -0.7 | 3202 | -3
- O=C(CN1CCCCC1)N1CCCc2ccccc21
  -7 | -16 | 2 | 4 | 0.2 | 13151 | 3
- COC(=O)c1ccccc1NC(=O)c1c(O)c2c([nH]c1=O)CCCC2
  9 | -9 | . | . | 5.5 | 3493 | 13
- Nc1[nH]c(=O)nc(Nc2ccccc2)c1N=O
  19 | -10 | 8 | 8 | 3.2 | 5242 | 0
- COc1ccc(N(CC(=O)N2CCN(c3cccc(Cl)c3)CC2)S(=O)(=O)c2c(C)noc2C)cc1
  -6 | -7 | -5 | 6 | 6.1 | 5585 | 2
- Cc1ccccc1OCC(=O)N(Cc1nc(-c2ccccc2)no1)C(C)C
  -3 | -14 | 16 | 4 | 9.3 | 9700 | 32
- COCCNC(=O)c1ccc(CS(=O)(=O)c2ccc(OC)cc2)o1
  2 | -14 | . | . | 2.5 | 6070 | 0
- O=C(NC1=NCCS1)c1ccc(N2CCCC2=O)cc1
  -4 | -9 | 3 | 1 | 6.9 | 4177 | 5
- O=C1NCN(c2ccccc2)C12CCN(c1nnnn1-c1ccccc1)CC2
  9 | -2 | -1 | 3 | 1.8 | 3614 | 2
- O=C(CC1CCCC1)NNC(=O)c1ccc(Br)cc1
  . | -14 | -4 | 0 | 2.0 | 3954 | 4
- O=C(CCN1C(=O)/C(=C\c2ccccc2)SC1=S)NNC(=O)c1ccncc1
  -2 | . | -1 | 1 | -2.5 | 3438 | -8
- Cn1c(=O)c(Sc2ccccc2)c(O)c2ccccc21
  2 | -21 | -10 | -1 | -1.0 | 5721 | 3
- CC(=O)N1N=C(c2ccccc2)CC1c1ccccc1[N+](=O)[O-] (stereo unspecified)
  -3 | -19 | 8 | 4 | 6.5 | 11044 | -4
- CN1C(=O)OC2(C)CCc3ccccc3C12C (stereo unspecified)
  -6 | -31 | 2 | 5 | 6.0 | 10547 | -10
- CCOC(=O)c1csc(Nc2nc3ccc(F)cc3s2)n1
  -2 | -30 | 4 | 4 | 0.5 | 4171 | -7
- Cc1cccc(C)c1NC(=S)Nc1ccc(F)cc1
  0 | -13 | 3 | 5 | 7.2 | 3479 | 8
- CCOc1ccc(NC(=O)[C@H](Cc2ccccc2)NC(=O)C2CCNCC2)cc1
  7 | -17 | -4 | -4 | -3.5 | 4603 | 0
- CCOC(=O)Cn1c(-c2cccnc2Cl)nc2cc(Cl)c(Cl)cc21
  4 | 1 | 1 | 9 | -0.4 | 20399* | -11
- CCOC(=O)C1(CCOc2ccccc2)CCN(Cc2cccc(F)c2)CC1
  12 | -9 | 1 | -3 | -0.2 | 3061 | 19
- N#Cc1c(Nc2cccc(F)c2)sc2c(O)cc(=O)[nH]c12
  3 | -21 | 8 | 6 | 26 | 4263 | 1
- CN(C(=O)CSc1nnc(C(F)(F)F)n1N)C1CCS(=O)(=O)C1 (stereo unspecified)
  9 | -26 | . | . | . | 4282 | .
- CC(OC(=O)C(C)Oc1ccccc1)C(=O)Nc1ccc(S(=O)(=O)N2CCCCC2)cc1 (stereo unspecified)
  . | -12 | 4 | 1 | 6.0 | 2732 | 6
- O=C(C1CCCO1)N1CCN(C(c2ccccc2)c2ccccc2)CC1 (stereo unspecified)
  -1 | -6 | 10 | 8 | -0.8 | 9307 | 1

Reformatted comma-delimited: 9 of the compounds above.
SMILES,BJeLR lethal,PrP UTR inh,Mtb hypoxia rep,Mtb hypoxia rep growth,RN4220 kill,Autofluor counter,ugtP null kill
CCOC(=O)c1csc(Nc2nc3ccc(F)cc3s2)n1,-2,-30,4,4,0.5,4171,-7
Cc1cccc(C)c1NC(=S)Nc1ccc(F)cc1,0,-13,3,5,7.2,3479,8
CCOc1ccc(NC(=O)[C@H](Cc2ccccc2)NC(=O)C2CCNCC2)cc1,7,-17,-4,-4,-3.5,4603,0
CCOC(=O)Cn1c(-c2cccnc2Cl)nc2cc(Cl)c(Cl)cc21,4,1,1,9,-0.4,20399*,-11
CCOC(=O)C1(CCOc2ccccc2)CCN(Cc2cccc(F)c2)CC1,12,-9,1,-3,-0.2,3061,19
N#Cc1c(Nc2cccc(F)c2)sc2c(O)cc(=O)[nH]c12,3,-21,8,6,26,4263,1
CN(C(=O)CSc1nnc(C(F)(F)F)n1N)C1CCS(=O)(=O)C1 (stereo unspecified),9,-26,.,.,.,4282,.
CC(OC(=O)C(C)Oc1ccccc1)C(=O)Nc1ccc(S(=O)(=O)N2CCCCC2)cc1 (stereo unspecified),.,-12,4,1,6.0,2732,6
O=C(C1CCCO1)N1CCN(C(c2ccccc2)c2ccccc2)CC1 (stereo unspecified),-1,-6,10,8,-0.8,9307,1

Further structures follow:
Each structure is followed by: BJeLR lethal | PrP UTR inh | Mtb hypoxia rep | Mtb hypoxia rep growth | RN4220 kill | Autofluor counter | ugtP null kill
- CCc1ccc(NC(=O)C(C)n2nc(C)c([N+](=O)[O-])c2C)cc1 (stereo unspecified)
  14 | 4 | -1 | 6 | 4.6 | 4295 | 1
- COc1ccc(-c2nnc3c4ccccc4c(C)nn23)cc1
  0 | -40 | 10 | 8 | 3.1 | 22622* | 0
- Cc1cnc(C(=O)Nc2nnc(C3CC3)s2)cn1
  -2 | -26 | 7 | 2 | 0.6 | 8530 | 2
- Cn1nc(-c2ccccc2)c(-c2nc(-c3cccc(C(F)(F)F)c3)no2)c1Cl
  3 | -12 | . | . | 2.4 | 4674 | 9
- O=C(N/N=C/c1ccco1)c1ccncc1
  2 | 4 | . | . | . | 24013* | .
- COc1ccc(OCC(O)CNC(=O)Nc2ccc(C(C)(C)C)cc2)cc1 (stereo unspecified)
  5 | -8 | -3 | -1 | -7.0 | 6358 | -4
- COc1cccc(NC(=S)NCc2ccccc2)c1
  -8 | 3 | 2 | 8 | 2.0 | 3515 | 0
- Cc1ccc(-c2nnn(CC(=O)Nc3nnc(C(C)C)s3)n2)cc1
  12 | -20 | 15 | -1 | -0.4 | 4593 | 2
